Source: PubChem (several laboratories)
T cruzi repl – T. cruzi replication inhibition | T. cruzi beta-gal in NIH3T3, luminescence, 90 h | inhibition, % (no concentration beside the values) | hit rate 1.4% among 300,000;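 active = mean inhibition across valid replicates above about 55%, limit read from the data; inconclusive = mean below that limit but half or more replicates reach it; inactive = mean below it, under half of replicates reach it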;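 note: signal also drops with host cell toxicity which is not excluded here; 0% = plate median of DMSO wells and 100% = zero luminescence signal; higher percent means less beta-gal luminescence so fewer parasites; stock transfer was 50 nL into about 50 µL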
Ecoli rRNA inh – selective bacterial rRNA inhibition in E. coli; E. coli WT GFP vs humanized-ribosome RFP mutants, fluorescence, 24 h; active compounds read low; DMSO median 0, no signal -100; GFP signal change (wild-type ribosome), % (concentration not given with the values); hit rate 1.6% among 350,000;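 active = significant combined selectivity score with lowered wild-type GFP, culture density cut under 30%, mutant RFP and density less affected; inactive = any of these conditions unmet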; note: one replicate is shown; some compounds called inactive have numbers as strong as hits
Bfl-1 A1 inh – inhibitors of the anti-apoptotic protein A1, read as caspase activation. MEF A1-2A-BIM cells, Caspase-Glo 3/7 luminescence, 3 h; percent of clofoctol response, vehicle zero. caspase activation, % (no concentration beside the values). hit rate 0.066% among 330,000. AID 2462;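 active = over half of replicate activation scores above 10%, or exactly half above 10 with the replicate mean above 10; inconclusive = replicate mean below 10 yet half the replicates above 10; inactive = over half of replicates below 10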;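 note: wells of about 30 µL received 50 nL stock; many hits fall short of the cut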
E coli growth – E. coli growth inhibition. Escherichia coli growth, OD600, 23 h; active compounds read low. OD600 absorbance (concentration not given with the values). hit rate 0.21% among 330,000. AID 1053175;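 active = OD600 absorbance below the run mean of sample wells minus 3.6 SD, in any replicate, cut at about 0.56 in these data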;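 note: stock transfer was 300 nL into about 60 µL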
Beta cell apopt – beta cell apoptosis inhibition. INS-1E cytokine-induced death, ATP luminescence, 48 h; percent of positive-control rescue, neutral wells zero. protection from apoptosis, % (test concentration not listed). hit rate 0.8% among 300,000. AID 435005;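 active = all replicates at 75% or more, or half of them and the mean; inconclusive = half reach 75% but not the mean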;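 note: 0% = cytokine-treated negative control wells and 100% = positive control rescue; higher means more ATP so stronger rescue from cytokine killing; wells of about 40 µL received 100 nL stock; the first replicate is given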
FGF22 binding – shifts melting point of recombinant human FGF22 | Q9HCT0 | recombinant FGF22 thermal shift, SYPRO orange fluorescence; percent of sucrose octasulfate shift, DMSO zero | calls only at 9.99 µM | hit rate 1.5% among 340,000 | AID 651658;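 active = melting point raised past a set limit in the mean and every replicate; inconclusive = no clear call; three in four hits are not shown here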
Target sequence (Q9HCT0 whole entry, looked up): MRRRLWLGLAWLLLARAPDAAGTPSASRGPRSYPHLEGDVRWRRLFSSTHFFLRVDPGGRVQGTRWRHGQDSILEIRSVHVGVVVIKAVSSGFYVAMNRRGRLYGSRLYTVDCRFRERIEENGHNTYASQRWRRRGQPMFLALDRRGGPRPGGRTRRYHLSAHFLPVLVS
MLL AF4-AF9 inh – inhibitors of human MLL-AF4/AF9 interaction; AlphaScreen, biotin-AF4 peptide binding to FLAG-AF9; inhibition, % at 10 µM; hit rate 0.47% among 350,000;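 active = every replicate reaching a set inhibition limit, whatever the replicate mean, cut at about 25% in these data; inconclusive = mean inhibition reaches that limit but some replicates miss it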;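 note: 0% = plate neutral control median and 100% = total signal loss; the record names both 10 and 1 µM as test concentration; the first replicate is given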
UCH37 DUB inh – human UCH37 deubiquitinating enzyme inhibition | Q9Y5K5 | purified proteasome/UCH37, Ub-AMC cleavage fluorescence | inhibition, % (no concentration beside the values) | hit rate 0.33% among 330,000 | AID 588478;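 active = mean of two replicates above 20%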;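 note: 0% = compound-free wells with enzyme and 100% = wells lacking proteasome; stock transfer was 100 nL into about 20 µL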
Target sequence (Q9Y5K5 whole entry, looked up): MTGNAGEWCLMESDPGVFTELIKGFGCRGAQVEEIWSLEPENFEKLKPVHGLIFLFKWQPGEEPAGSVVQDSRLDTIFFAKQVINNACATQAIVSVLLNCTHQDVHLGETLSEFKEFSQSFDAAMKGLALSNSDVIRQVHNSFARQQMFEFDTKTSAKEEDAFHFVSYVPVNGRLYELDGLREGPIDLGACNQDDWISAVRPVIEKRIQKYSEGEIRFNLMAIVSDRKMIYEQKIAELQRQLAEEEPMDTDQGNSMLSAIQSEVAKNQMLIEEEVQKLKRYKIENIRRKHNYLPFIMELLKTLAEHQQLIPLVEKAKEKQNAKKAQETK
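Material: human UCH37 enzyme supplied as purified proteasome complex / Amount: 0.15 nM proteasome as dispensed / Buffer or medium: pH 7.4 Tris-HCl (50 mM) with ovalbumin, ATP-MgCl2, DTT / Times: preincubation 30 min, reaction 25 min, room temperature / Technique: AMC fluorescence from Ub-AMC cleavage, excitation 355 nm, emission 460 nm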
Ecoli rRNA inh OD600 – second read-out of Ecoli rRNA inh, no call of its own (marks repeat the call); OD600 change, %; measured here: OD600 growth;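 optical density of the mix in the first replicate; 0 = DMSO median and -100 = no signal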
Ecoli rRNA inh RFP – further read-out of Ecoli rRNA inh, marked with its call; RFP signal change, %; measured here: RFP humanized mutant strains;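 first replicate; 0 = DMSO median and -100 = no signal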
* marks the source's active call; other numbers are inactive results; i = inactive; ? = inconclusive; . = no result given.

SMILES	T cruzi repl	Ecoli rRNA inh	Ecoli rRNA inh OD600	Ecoli rRNA inh RFP	Bfl-1 A1 inh	E coli growth	Beta cell apopt	FGF22 binding	MLL AF4-AF9 inh	UCH37 DUB inh
CCOc1ccccc1C(=O)NCC(=O)N1CCC(C)CC1	.	-12	2	-2.8	-1.1	0.65	-4	i	-0.1	0.1
c1ccc(-c2cn(-c3ccccc3)c3[n+]2CCS3)cc1	68*	-10	18	1.8	1.7	0.66	53	i	-1.4	4.1
Cc1ccsc1C(=O)Nc1ccccc1N1CCCC1	8	6	0	0.8	0.9	0.68	-13	i	7.2	0.0
COc1cc(/C(C)=N/NC(=O)CN2CCN(S(=O)(=O)c3ccc(C)cc3)CC2)ccc1O	-2	3	-2	-2.8	-0.1	.	2	i	11	.
CCN(CC)S(=O)(=O)c1ccc(-c2nnc(SCc3nnc(-c4ccccc4)o3)o2)cc1	-22	-3	-2	-5.8	0.5	0.67	-4	.	.	5.0
CCc1cc(=O)oc2cc(C)c(CN3CCCC(C)C3)c(O)c12 (centres undefined)	2	.	.	.	0.3	0.73	0	.	2.5	-14
Brc1ccc(-c2nnc3sc(CNCc4ccc5c(c4)OCO5)cn23)cc1	2	4	9	1.1	-0.7	0.71	-10	i	1.9	4.0
COC(=O)CN1C(=O)[C@H]2[C@@H](C3CC3)N3C(=O)CN(CCO)C(=O)[C@@]3(Cc3ccccc3)[C@H]2C1=O	-4	18	10	9.8	0.8	.	-4	i	1.7	2.6
Cn1c(=O)c([N+](=O)[O-])c(N2CCSCC2)c2ccccc21	12	16	-2	3.5	-0.2	0.63	-7	i	-1.4	8.8
Cc1cc2n(n1)C(c1cn(-c3ccccc3)nc1C)Nc1c(C)cccc1-2 (centres undefined)	1	.	.	.	0.1	0.74	-5	.	.	-78
COc1cccc(NC(=O)NNC(=O)C(C)Oc2ccc3ccccc3c2)c1 (centres undefined)	-4	-8	-27	6.7	-0.4	0.67	-5	i	-3.3	-0.3
O=Cc1ccc(N2CCCC2)c([N+](=O)[O-])c1	-5	0	2	-0.8	1.5	0.71	1	i	1.1	6.8
O=C(CN1C(=O)c2ccccc2C1=O)NCCc1c[nH]c2ccccc12	3	7	2	-3.3	0.2	0.63	3	i	4.7	1.9
Cc1cc(N2C(=O)C3C4C=CC(C4)C3C2=O)no1 (centres undefined)	-7	.	.	.	0.2	0.71	-5	.	.	1.5
O=c1cc(-c2ccccc2)[nH][nH]1	-7	0	2	0.3	-0.5	0.67	-9	.	-43	-2.6
Oc1ccc(/C=N/Nc2nc(-c3ccccc3F)nc3ccccc23)c(O)c1	-5	-19	-2	16	0.0	.	91*	i	-0.5	.
COc1ccc(CNC(=O)CN(c2ccc(OC)c(Cl)c2)S(=O)(=O)c2ccc(C)cc2)cc1	21	-4	-3	1.3	-0.5	0.75	-1	i	-0.2	2.7
O=C1Cc2cc([N+](=O)[O-])ccc2N1c1c(Cl)cccc1Cl	-4	18	5	-1.2	0.2	0.64	6	i	9.0	3.3
O=C(O)CSc1nnc(COc2cccc3ccccc23)o1	-11	-18	-17	-1.1	0.8	0.61	-8	i	2.9	0.9
CC(C)CC(c1nnnn1Cc1ccccc1)N1CCN(C(=O)c2ccco2)CC1 (centres undefined)	-3	.	.	.	0.2	0.69	.	.	.	5.9
CCOCCCn1c(SC(C)C(=O)NCC2CCCO2)nc2sc(C)c(C)c2c1=O (centres undefined)	.	.	.	.	-0.6	0.67	1	i	-1.0	1.6
O=C(CCCOc1ccc(Cl)cc1)NC1CCCCC1	0	5	6	2.2	?	0.66	-4	i	-1.7	2.6
CCOCCCNC(=O)c1ccc2c(c1)ncn2-c1ccccc1OC	-1	4	5	2.1	0.1	0.65	-4	i	-0.2	0.7
C[C@@H](C(=O)NCCc1ccc(F)cc1)N1C(=O)N2CCc3c([nH]c4ccccc34)[C@@]2(C)C1=O	25	.	.	.	-0.2	0.7	.	i	8.2	3.7
Nc1ccccc1C(=O)NNc1ncc(C(F)(F)F)cc1Cl	-1	.	.	.	1.3	0.72	2	.	.	-11
SMILES	T cruzi repl	Ecoli rRNA inh	Ecoli rRNA inh OD600	Ecoli rRNA inh RFP	Bfl-1 A1 inh	E coli growth	Beta cell apopt	FGF22 binding	MLL AF4-AF9 inh	UCH37 DUB inh
Cc1nc2ccc(NC(=O)CCC3CCCC3)cc2s1	-7	-10	-28	-2.4	-0.4	0.69	.	i	-1.8	1.1
Cc1cc(C)n(-c2nc3ccccc3nc2Nc2ccc(CC(=O)O)cc2)n1	2	-6	-3	-2.6	0.2	0.73	1	i	-6.3	2.1
CCn1c2ccccc2c2cc(NC(=O)CCCN3C(=O)CCC3=O)ccc21	9	.	.	.	1.3	0.7	.	.	.	-2.8
CO[C@H]1C=CO[C@@]2(C)Oc3c(C)c(O)c4c(O)c(c(C=NN5CCN(C)CC5)c(O)c4c3C2=O)NC(=O)C(C)=CC=C[C@H](C)[C@H](O)[C@@H](C)[C@@H](O)[C@@H](C)[C@H](OC(C)=O)[C@@H]1C	13	-12	6	-2.7	0.1	.	5	i	7.4	6.4
CCOc1ccc(C(C)=O)cc1NC(=O)/C=C\C(=O)O	9	17	19	9.9	0.5	.	-3	i	-1.0	0.0
N=C1C(c2ccccc2)=C(O)CN1NC(=O)c1ccc(Cl)cc1	-20	12	12	4.7	-0.2	0.72	-9	.	0.1	-0.3
CCn1c(/C=C/Nc2ccccc2)[n+](CC)c2ccc(Cl)cc21	-8	.	.	.	0.7	0.68	-3	.	.	15
COc1ccc(S(=O)(=O)N(C(=O)c2ccncc2)c2ccc3oc4c(c3c2)CCCC4)cc1	-53	-2	-10	-4.8	0.0	0.7	-7	i	0.7	2.9
O=C(/C=C/c1ccccc1)N(c1ccccn1)C1CCCCC1	-6	.	.	.	-0.3	0.73	-2	.	.	1.6
COc1cc(-n2c(=O)c3ccccc3n(CC(=O)c3ccc(Br)cc3)c2=O)cc(OC)c1OC	-15	12	7	1.2	0.2	0.68	7	i	-12	6.4
COc1cccc(-c2nnc(N)o2)c1	-6	8	16	1.6	0.0	0.63	2	i	-0.9	1.7
CCOc1cc(S(=O)(=O)N2CCN(C(=O)c3ccco3)CC2)ccc1F	-6	4	2	-0.8	0.6	0.67	1	i	3.8	2.4
CCOC(=O)CCC(=O)N1CCOCCN(C(=O)CCC(=O)OCC)CCOCC1	2	.	.	.	-0.5	0.74	-6	.	.	-1.4
Cc1ccccc1NC(=O)/C(C#N)=C/c1ccccc1C(F)(F)F	-16	.	.	.	-0.2	0.72	-2	.	.	0.8
O=C(c1nc2ccccn2c1CNCCn1ccc2ccccc21)N1CCOCC1	9	8	3	1.3	-0.2	0.71	0	i	9.7	0.1
c1ccc(Cc2ccc(OCCN3CCOCC3)cc2)cc1	-14	-19	-22	0.2	1.4	0.65	-3	i	4.3	3.7
O=C(CCCN1C(=O)/C(=C/c2cccs2)SC1=S)Nc1cc([N+](=O)[O-])ccc1O	-14	6	34	21	0.3	0.67	1	i	0.7	1.9
CCCCn1c(N)c(N(CC(C)C)C(=O)C2CSC3(C)CCC(=O)N23)c(=O)[nH]c1=O (centres undefined)	-6	-1	7	-1.8	-0.4	0.63	1	i	0.2	-2.6
CCCOc1ccc(-c2cc3onc(-c4ccccc4)c3c(=O)n2C)cc1	.	11	-2	-0.8	-5.6	0.73	43	i	-1.7	3.1
CCN(CC)c1nc(N)c2c(N)n(-c3ccccc3C)c(=S)c(C#N)c2c1C#N	4	.	.	.	1.9	0.67	.	.	.	21*
O=C(N/N=C/c1ccccn1)c1cccc(S(=O)(=O)N2CCCC2)c1	7	0	-3	-2.6	-0.1	.	-4	i	3.8	.
Cc1cccc(C(=O)N/N=C/c2ccc(OC3CSC3)cc2)c1	4	2	5	-3.3	-5.2	.	4	i	1.9	.
CC(=O)NC(Cc1ccccc1)C(=O)NC1CCN(c2ncccc2[N+](=O)[O-])CC1 (centres undefined)	-3	7	11	4.7	-0.2	0.71	4	i	1.2	7.7
O=C1OC(N2C(=O)CC[C@H]2C(=O)Nc2ccc3c(c2)OCO3)c2ccccc21 (some centres undefined)	-19	4	7	7.6	0.3	0.79	-4	i	2.0	1.2
CN(/N=C/c1cc(Br)cc(Br)c1O)c1cccc(C(F)(F)F)n1	23	-54	-77	-15	0.6	.	?	i	1.2	.
Cc1cccc(NC(=O)C(C)C(=O)c2ccccc2)c1 (centres undefined)	5	-1	3	2.4	1.2	0.69	-2	i	1.0	1.6
COc1ccccc1N(CC(=O)NC1CCCC1)C(=O)CCC(=O)Nc1ccccn1	15	-3	-2	-3.5	0.0	0.71	-7	i	-7.2	4.4

Entries above that contain an aryl methoxy group:
SMILES	T cruzi repl	Ecoli rRNA inh	Ecoli rRNA inh OD600	Ecoli rRNA inh RFP	Bfl-1 A1 inh	E coli growth	Beta cell apopt	FGF22 binding	MLL AF4-AF9 inh	UCH37 DUB inh
COc1cc(/C(C)=N/NC(=O)CN2CCN(S(=O)(=O)c3ccc(C)cc3)CC2)ccc1O	-2	3	-2	-2.8	-0.1	.	2	i	11	.
COc1cccc(NC(=O)NNC(=O)C(C)Oc2ccc3ccccc3c2)c1 (centres undefined)	-4	-8	-27	6.7	-0.4	0.67	-5	i	-3.3	-0.3
COc1ccc(CNC(=O)CN(c2ccc(OC)c(Cl)c2)S(=O)(=O)c2ccc(C)cc2)cc1	21	-4	-3	1.3	-0.5	0.75	-1	i	-0.2	2.7
CCOCCCNC(=O)c1ccc2c(c1)ncn2-c1ccccc1OC	-1	4	5	2.1	0.1	0.65	-4	i	-0.2	0.7
COc1ccc(S(=O)(=O)N(C(=O)c2ccncc2)c2ccc3oc4c(c3c2)CCCC4)cc1	-53	-2	-10	-4.8	0.0	0.7	-7	i	0.7	2.9
COc1cc(-n2c(=O)c3ccccc3n(CC(=O)c3ccc(Br)cc3)c2=O)cc(OC)c1OC	-15	12	7	1.2	0.2	0.68	7	i	-12	6.4
COc1cccc(-c2nnc(N)o2)c1	-6	8	16	1.6	0.0	0.63	2	i	-0.9	1.7
COc1ccccc1N(CC(=O)NC1CCCC1)C(=O)CCC(=O)Nc1ccccn1	15	-3	-2	-3.5	0.0	0.71	-7	i	-7.2	4.4

An excerpt. The share of hits here may be higher or lower than overall.
